Six1-Eya2 inh: blocks human Six1 binding to Eya2; AID 651725; Q15475+O00167; activity change, % (concentration not given with the values); hit rate 0.56% among 360,000; AlphaScreen GST-Six1/His-Eya2 binding, biochemical; stronger effect = lower value; control for the full effect not named in the record; in the data active = activity change below about -65%; inconclusive = about -30% to -65%; inactive = above about -30%; also: % is scaled to controls: 0 for no effect and ±100 for the full control effect
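AlphaScreen with GST-Six1 and His-Eya2 (5X mix: 250 nM and 500 nM), glutathione donor and nickel acceptor beads; buffer 50 mM Tris pH 8.0, 300 mM NaCl, 1 mM TCEP; 1 h at 37 C in the dark.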
TRPV1 potentiator: potentiators of human vanilloid receptor 1 (TRPV1) | Q8NER1 | potentiation, % at 8.33 µM | hit rate 0.02% among 320,000 | TRPV1-expressing cells, Fluo-8 calcium influx, capsaicin EC20 potentiation; host cell line not named in the record; control for the full effect not named in the record | AID 540277; active means potentiation above 80%; inconclusive means 30% to 80%; inactive means below 30%; also: 0% is about no effect
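Fluo-8 calcium influx in TRPV1-expressing cells, kinetic read (ex 480/em 520 nm). Compound added and read 3 min for agonist activity, followed by capsaicin at EC20 final and 2 min further read for enhancement.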
CtBP-E1A blk: CtBP/E1A binding inhibition | AlphaScreen GST-E1A/His-CtBP binding, 1536-well; stronger effect = lower value; control for the full effect not named in the record | activity change, % (no concentration beside the values) | hit rate 0.49% among 340,000 | AID 651724; in the data active means activity change below about -65%; inconclusive means about -30% to -65%; inactive means above about -30%; also: % is scaled to controls: 0 for no effect and ±100 for the full control effect; compound concentration not given in the record
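GST-E1A and His-tagged CtBP (125 nM each as 5X stock) were preincubated with pin-transferred compound for 2 h at 37 °C in the dark, then glutathione donor and nickel acceptor beads were added for 1 h before AlphaScreen reading.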
TRPML1 blocker: blocks the human TRPML1 channel; Q9GZU1; TRPML1-inducible cells, Ca2+ dye fluorescence, FDSS; stronger effect = lower value; inhibition of EC80 agonist-evoked calcium signal; activity change, negative = inhibition, % (concentration not given with the values); hit rate 0.02% among 390,000; in the data active means activity change below about -50%; inconclusive means about -30% to -50%; inactive means above about -30%;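 also: stimulus is agonist 54-4 at its EC80 concentration; % is scaled to controls: 0 for no effect and ±100 for the full control effect; compound concentration not given in the record; the text of the record puts the active cut at -80%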
Target sequence (Q9GZU1 whole entry, looked up): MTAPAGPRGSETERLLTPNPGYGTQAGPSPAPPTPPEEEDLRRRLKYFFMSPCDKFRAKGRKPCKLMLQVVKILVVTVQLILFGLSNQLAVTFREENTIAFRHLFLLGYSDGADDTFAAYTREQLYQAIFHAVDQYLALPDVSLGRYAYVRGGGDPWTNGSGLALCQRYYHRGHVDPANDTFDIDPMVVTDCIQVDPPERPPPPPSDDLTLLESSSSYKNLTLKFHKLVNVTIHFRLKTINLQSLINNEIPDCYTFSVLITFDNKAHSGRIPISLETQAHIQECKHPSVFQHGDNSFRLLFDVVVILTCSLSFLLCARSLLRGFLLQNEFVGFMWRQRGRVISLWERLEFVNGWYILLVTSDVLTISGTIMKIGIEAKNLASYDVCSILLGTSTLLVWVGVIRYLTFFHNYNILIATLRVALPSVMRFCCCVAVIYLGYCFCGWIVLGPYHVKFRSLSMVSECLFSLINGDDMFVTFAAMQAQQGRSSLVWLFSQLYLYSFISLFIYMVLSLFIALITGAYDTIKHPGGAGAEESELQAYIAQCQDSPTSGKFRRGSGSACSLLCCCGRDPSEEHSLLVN
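Calcium fluorescence in TRPML1-DL cells induced overnight with Tet: a 110 s read after compound pin addition, then a 110 s antagonist read after challenge with 54-4 at 4 uM final (EC80).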
D2 potentiator: human D2 receptor positive allosteric modulation. potentiation, % (concentration not given with the values). DiscoveRx D2 beta-arrestin cells, luminescence, 90 min; 100% = 57 uM dopamine signal. hit rate 0.23% among 360,000. AID 624464; active = potentiation of 50% or more; inconclusive = 30% to 50%; inactive = 30% or less;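 also: compound concentration not given in the record; tested on top of an EC20 dose of dopamine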
Target sequence (P14416 whole entry, looked up): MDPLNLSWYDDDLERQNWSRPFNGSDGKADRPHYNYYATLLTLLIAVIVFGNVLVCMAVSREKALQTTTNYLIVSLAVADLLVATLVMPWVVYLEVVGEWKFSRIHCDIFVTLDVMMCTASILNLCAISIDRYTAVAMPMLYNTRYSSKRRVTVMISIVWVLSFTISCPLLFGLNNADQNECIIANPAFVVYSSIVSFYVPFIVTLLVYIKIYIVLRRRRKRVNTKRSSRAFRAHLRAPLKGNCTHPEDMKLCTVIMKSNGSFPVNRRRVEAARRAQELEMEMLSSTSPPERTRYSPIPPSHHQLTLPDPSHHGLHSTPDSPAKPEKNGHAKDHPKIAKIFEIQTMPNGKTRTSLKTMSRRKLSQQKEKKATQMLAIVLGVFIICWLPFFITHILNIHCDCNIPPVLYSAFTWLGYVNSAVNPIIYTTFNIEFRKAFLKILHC
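D2 cells co-treated with compound plus 50 nM dopamine (EC20) for 90 min at 37 deg C to detect potentiation. Beta-arrestin recruitment was read as enzyme-fragment luminescence after 1 h at ambient temperature. Full response was set by 57 uM dopamine.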
TRPML1 ag: activates the human TRPML1 channel; activation, % (test concentration not listed); Q9GZU1; TRPML1-expressing cells, Ca2+ dye fluorescence, FDSS; host cell line not named in the record; reference of the full effect not given here; hit rate 0.12% among 410,000; in the data active = activation above about 50%; inconclusive = about 30% to 50%; inactive = below about 30%; also: 0% is about no effect; the text of the record puts the active cut at 80%
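Tetracycline-induced TRPML1-DL cells are seeded and incubated overnight before loading with a no-wash Ca2+ dye and quencher. Agonist activity is taken from the 110 s fluorescence read following compound pin-transfer on an FDSS, before EC80 54-4 challenge.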
* = called active by the depositor; ? = inconclusive; nt = not tested or not shown.

Results follow in this order: Six1-Eya2 inh | TRPV1 potentiator | CtBP-E1A blk | TRPML1 blocker | D2 potentiator | TRPML1 ag
1: Cc1ccccc1N(Cc1cc(=O)[nH]c2ccccc12)C(=O)C(C)C
  0.0 | 2.0 | 1.6 | 18.6 | -4.4 | -1.1
2: CC1(C)CC2(CCO1)OC(=O)CC2C(=O)Nc1c(Cl)cccc1Cl (stereo unspecified)
  2.6 | 19.8 | 1.8 | 15.1 | -2.4 | 1.3
3: Cc1ccc(S(=O)(=O)N2C[C@H]3n4c(=O)ccc(=O)n4C[C@H](OC(=O)NCc4ccccc4F)[C@@]3(O)C2)cc1
  4.0 | nt | 0.4 | 11.5 | -0.4 | 0.2
4: C=CCNC(=O)CCCCCNS(=O)(=O)c1ccc(OC)cc1
  0.1 | 0.7 | 8.3 | 0.1 | 5.4 | 0.1
5: CC(Sc1nc2ccccc2n1C)C(=O)Nc1ccc(N2CCOCC2)cc1 (stereo unspecified)
  -9.8 | -13.8 | -7.6 | -3.7 | -4.9 | -0.7
6: NC(=S)Nc1ccc(F)cc1F
  0.8 | 1.2 | 0.6 | -2.2 | -5.1 | -0.1
7: Cc1[nH]nc2c1-c1nc3ccccc3nc1C(C)(C)C2
  -4.0 | -17.6 | -5.2 | -0.7 | -3.3 | 1.9
8: Cc1ccc(N2CC(O)=C(c3ccccc3)C2=N)cc1
  -9.9 | -5.4 | 0.3 | -0.1 | -4.4 | 0.3
9: Cc1ccc(C2=NN(C(=O)CCCC(=O)O)C(c3ccco3)C2)cc1 (stereo unspecified)
  9.0 | 2.8 | -1.4 | 14.0 | -2.6 | -0.1
10: Cc1ccccc1-c1nc2cc(Cl)ccc2o1
  31.9 | ? | 25.5 | -6.7 | 1.1 | -0.5
11: OC(CN1CCc2ccccc2C1)c1ccccc1 (stereo unspecified)
  0.0 | -3.1 | 8.3 | 29.3 | -4.0 | 0.4
12: CC(=O)Nc1ccc(N2C(=O)C3C4CC(=O)C(c5ccccc54)C3C2=O)cc1 (stereo unspecified)
  1.3 | 4.2 | 19.0 | -1.3 | -28.3 | 0.2
13: Cc1nn(C(=O)c2cccs2)c(C)c1CN1C(=O)c2ccccc2C1=O
  4.3 | -3.9 | 10.1 | -1.6 | -15.3 | 0.9
14: O=C(N/N=C/c1ccc(Br)o1)c1cccnc1
  0.1 | -4.2 | 0.5 | 2.5 | -12.6 | 0.0
15: CN1CCC(C)(C(=O)Nc2cccc(Oc3ccccc3)c2)C1 (stereo unspecified)
  -5.1 | nt | -6.1 | nt | -0.1 | -0.5
16: CC1(Cc2ccc(Cl)c(Cl)c2)C(=O)Nc2ccc(S(=O)(=O)NC3CCCCC3)cc21 (stereo unspecified)
  5.3 | nt | -7.5 | nt | 0.2 | 0.1
17: CC1CC(C)CN(CCOCCSc2ccccc2)C1 (stereo unspecified)
  -3.0 | -19.5 | -10.8 | 21.2 | -30.2 | -0.1
18: CCc1ccc(C(=O)N/N=C/c2cccc3ccccc23)nc1
  -1.4 | -8.3 | -7.3 | 1.0 | -28.2 | 0.5
19: CC(C)C1=C2CCCCC2NC(=O)N1 (stereo unspecified)
  2.1 | -0.7 | 1.4 | 0.2 | -4.4 | 0.7
20: CCc1ccc(CCC(=O)N2CCN(S(=O)(=O)c3sc(C(=O)O)c(C)c3C(=O)O)CC2)cc1
  -3.9 | nt | 21.9 | 17.2 | -2.8 | -0.1
21: CCCCNC(=O)c1nc(C2CCN(S(=O)(=O)c3csc(C(=O)O)c3)CC2)oc1-c1ccccc1
  3.1 | nt | 0.9 | nt | -5.1 | -0.3
22: Cn1cnnc1SCc1ccc(C(=O)N/N=C(\CCC(=O)O)c2ccc(C(C)(C)C)cc2)cc1
  -2.6 | 13.4 | -2.8 | -1.7 | 11.9 | -1.5
23: COC(=O)c1ccc(CSc2nnc(NC(=O)c3cc4c(s3)CCCC4)s2)cc1
  -2.1 | 1.3 | 3.6 | 2.2 | 5.0 | -0.1
24: O=C(Nc1ccc2ccccc2n1)C1CCCCC1
  -1.4 | -20.6 | 10.9 | 3.5 | -0.8 | 4.9
25: O=C1CC2C(CCC23OCCO3)c2ccc3ccccc3c21 (stereo unspecified)
  9.9 | nt | -1.3 | 29.2 | -10.5 | 1.5
26: CCOc1ccc(C2CC(c3ccccc3C)n3ncnc3N2)cc1 (stereo unspecified)
  0.6 | 7.5 | 3.1 | 5.0 | -0.5 | -0.2
27: CC1CCN(CCNC(=O)CN(C)S(=O)(=O)c2cccc3nsnc23)CC1
  6.2 | 3.6 | -4.2 | -5.8 | -9.1 | 0.1
28: O=C(CNS(=O)(=O)c1ccccc1)NNC(=O)C(Cl)Cl
  13.6 | -6.4 | 0.9 | 10.3 | -4.9 | -0.1
29: CC(C)(C)n1nc2c(c1NC(=O)c1ccccc1F)CS(=O)C2 (stereo unspecified)
  24.0 | ? | 0.6 | -7.6 | 0.1 | -0.9
30: CC1(C)CC(=O)C=C(Nc2ccc(O)c(C(=O)O)c2)C1
  -1.3 | 7.1 | -6.7 | 7.4 | -3.0 | 0.2

Some entries already given, showing only TRPML1 ag.
cpd	canonical_smiles	TRPML1 ag
12	CC(=O)Nc1ccc(N2C(=O)C3C4CC(=O)C(c5ccccc54)C3C2=O)cc1 (stereo unspecified)	0.2
13	Cc1nn(C(=O)c2cccs2)c(C)c1CN1C(=O)c2ccccc2C1=O	0.9
14	O=C(N/N=C/c1ccc(Br)o1)c1cccnc1	0.0
15	CN1CCC(C)(C(=O)Nc2cccc(Oc3ccccc3)c2)C1 (stereo unspecified)	-0.5
16	CC1(Cc2ccc(Cl)c(Cl)c2)C(=O)Nc2ccc(S(=O)(=O)NC3CCCCC3)cc21 (stereo unspecified)	0.1
17	CC1CC(C)CN(CCOCCSc2ccccc2)C1 (stereo unspecified)	-0.1

Next part.
Results follow in this order: Six1-Eya2 inh | TRPV1 potentiator | CtBP-E1A blk | TRPML1 blocker | D2 potentiator | TRPML1 ag
31: Cc1cc(C)n(CCNC(=O)C2CCC(=O)N(CC3CCCCC3)C2)n1 (stereo unspecified)
  1.5 | 7.6 | 2.3 | 13.7 | -8.4 | -0.1
32: CC(Sc1n[nH]c(=O)n1Cc1ccccc1)C(=O)NCC1CCCO1 (stereo unspecified)
  6.9 | -7.6 | -6.8 | -4.7 | 10.3 | -0.2
33: COc1ccc(Cl)cc1NC(=O)CN1CCN(S(=O)(=O)N2CCOCC2)CC1
  0.2 | -6.5 | 26.0 | -0.6 | -7.9 | -0.2
34: O=C1/C(=C/c2cccc(F)c2)Oc2cc(O)ccc21
  9.7 | 8.3 | -23.2 | -12.9 | -9.6 | -0.8
35: Cc1ccc(Cn2nc(C)c(NC(=O)c3noc4c3CCCCC4)c2C)cc1
  -1.1 | 2.8 | 3.0 | -11.4 | -3.2 | 0.5
36: COCCCNC(=S)N(CCCO)Cc1cc2cc3c(cc2[nH]c1=O)OCO3
  -0.4 | 1.8 | 2.5 | 22.2 | -2.1 | 1.3
37: CCN(CC)S(=O)(=O)c1cccc(N=NC2=C(O)CCCC2=O)c1
  -23.1 | 0.2 | 2.7 | 4.5 | -11.4 | 0.2
38: O=C(CSc1nc(C2CC2)nc2sc3c(c12)CCCC3)NCc1ccco1
  3.7 | -7.9 | 6.5 | -9.9 | -7.7 | -0.2
39: CC(=O)c1ccc(OCCCC(=O)Nc2cccc(S(=O)(=O)N3CCCCC3)c2)cc1
  -14.1 | -11.8 | -0.4 | -1.3 | 8.9 | 0.2
40: O=C(C1CCN(CC2CC=CCC2)CC1)N(CCc1ccccc1)Cc1ccccc1 (stereo unspecified)
  -5.5 | -3.8 | 0.2 | 38.5 | -15.3 | 1.1
41: CC(C)N1CCN(Cc2nc(-c3ccccc3)cs2)CC1CCO (stereo unspecified)
  2.4 | 2.9 | 1.6 | -3.6 | -6.6 | 0.7
42: CC(C)(C)c1ccc(C(=O)Nc2cnccn2)cc1
  -1.2 | 5.0 | 0.7 | 26.4 | 0.4 | -0.1
43: Nc1nnc(SCC(=O)NC2CCCCCC2)s1
  8.1 | 14.2 | -12.9 | -5.5 | 2.0 | 0.9
44: O=C(Nc1ccccc1Cl)c1cc(C2CCCCN2C(=O)CCCc2ccccc2)on1 (stereo unspecified)
  3.9 | nt | 12.7 | nt | -9.1 | 1.8
45: NC(=O)C1CCN(CC(=O)Nc2ccc(S(=O)(=O)N3CCOCC3)cc2)CC1
  -4.7 | -37.7 | -1.4 | -12.7 | -2.6 | 1.1
46: COCC(C)NC(=O)CSc1nc2cc(S(=O)(=O)N3CCCCC3)ccc2o1 (stereo unspecified)
  3.7 | 1.0 | 11.1 | -7.0 | -2.0 | -0.3
47: COc1ccccc1N1CCN(Cc2cc(=O)c(OCC(=O)NC3CCCC3)co2)CC1
  9.6 | 2.9 | -6.9 | 25.5 | 3.8 | 0.2
48: COc1ccc(C(=O)O)cc1S(=O)(=O)Nc1ccccc1C(=O)NCc1ccc2c(c1)OCO2
  6.5 | -4.2 | -0.4 | 3.8 | -6.1 | 0.2
49: CN1CCN(c2nnc(-c3ccccc3)c(-c3ccccc3)n2)CC1
  -5.5 | 24.3 | -1.8 | -7.4 | -13.4 | 0.0
50: O=C(O)CCCNC(=O)/C=C/c1ccco1
  ? | 3.9 | 6.0 | 12.1 | -0.8 | -0.3
51: CC(NCc1ccc([N+](=O)[O-])cc1)C1COc2ccccc2O1 (stereo unspecified)
  2.1 | 10.3 | -2.3 | -23.9 | -0.7 | 0.8
52: CCC(C)(O)c1[nH]c2ccc(C#N)cc2c1C (stereo unspecified)
  6.1 | -12.8 | nt | -12.5 | -3.2 | 0.2

Fetched by structure from the entries so far, three records:
Results follow in this order: Six1-Eya2 inh | TRPV1 potentiator | CtBP-E1A blk | TRPML1 blocker | D2 potentiator | TRPML1 ag
49: CN1CCN(c2nnc(-c3ccccc3)c(-c3ccccc3)n2)CC1
  -5.5 | 24.3 | -1.8 | -7.4 | -13.4 | 0.0
35: Cc1ccc(Cn2nc(C)c(NC(=O)c3noc4c3CCCCC4)c2C)cc1
  -1.1 | 2.8 | 3.0 | -11.4 | -3.2 | 0.5
40: O=C(C1CCN(CC2CC=CCC2)CC1)N(CCc1ccccc1)Cc1ccccc1 (stereo unspecified)
  -5.5 | -3.8 | 0.2 | 38.5 | -15.3 | 1.1

Screening data (PubChem)

Random draw from the library; overall some 0.95% were active at least once.
